Screening data as filed in PubChem.
Cruzain inh noDet: cruzain (T. cruzi) inhibition without detergent; P25779; purified cruzain, Z-FR-AMC fluorescence, no detergent; 200,000 compounds, 2.3% hits; Potency, µM, for inactives: max response, negative = inhibition, usual class: inhibitors;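 also: plate controls were enzyme without inhibitor for no effect and buffer without enzyme for full effect; nearly all actives have a fitted effect of over 40% in size; top concentration of the series not given in the record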
Target sequence (P25779 123-467 limits assumed): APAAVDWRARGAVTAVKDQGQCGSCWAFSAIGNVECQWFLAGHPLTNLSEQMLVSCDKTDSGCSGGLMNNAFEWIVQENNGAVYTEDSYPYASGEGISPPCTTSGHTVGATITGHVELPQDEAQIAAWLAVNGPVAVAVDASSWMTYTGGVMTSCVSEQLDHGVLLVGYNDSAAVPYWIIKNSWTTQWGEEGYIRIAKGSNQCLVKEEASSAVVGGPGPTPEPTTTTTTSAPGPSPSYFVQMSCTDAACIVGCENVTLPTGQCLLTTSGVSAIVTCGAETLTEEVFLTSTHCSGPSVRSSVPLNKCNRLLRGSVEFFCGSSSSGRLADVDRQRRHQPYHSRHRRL
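Purified cruzain at 1.5 nM, pre-incubated 15 min with compound at room temperature in 100 mM sodium acetate pH 5.5, 5 mM DTT, 0.00005% Triton X-100. Reaction started with 2 uM Z-FR-AMC; AMC fluorescence increase over 60 s gives rate.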
RE007 growth inh: less growth of the S. pombe RE007 Vpr strain; S. pombe RE007 Vpr strain, BacTiter-Glo ATP luminescence, 24 h; control for the full effect not named in the record; AID 651644; 360,000 compounds, 0.21% hits; Potency, µM (highest dose often 92.2 µM), without a hit: at the highest dose activity change, negative = less growth; active = well fitted falling curve with a large enough effect; inconclusive = small, poorly fitted or top-dose-only effect; inactive = no such curve, though single readings can be large or run the other way;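 also: % is scaled to controls: 0 for no effect and ±100 for the full control effect; nearly all actives have a fitted effect of over 50% in size; the assay follows cell death caused by Vpr and the record does not say whether a fall means rescue or toxicity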
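Fission yeast RE007 carrying one integrated HIV-1 vpr copy, seeded at OD 0.01 in PMG+AL medium with 23 nL pinned compound. Grown 24 h at 30 degrees; viability read by BacTiter-Glo luminescence after 5 min.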
Cruzain inh Det: inhibitors of Trypanosoma cruzi cruzain with detergent; P25779; purified cruzain, Z-FR-AMC fluorescence, 0.01% Triton; Potency, µM, for inactives: max response, negative = inhibition, hits mostly inhibitors; 200,000 compounds, 0.43% hits; AID 1478;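 also: plate controls were neutral wells for no effect and buffer without enzyme for full effect; nearly all actives have a fitted effect of over 40% in size; top concentration of the series not given in the record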
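Z-FR-AMC hydrolysis (2 uM substrate) by cruzain (1.5 nM) monitored kinetically at ex 360/em 450 nm after 15 min room-temperature compound exposure; 0.01% Triton X-100, pH 5.5, 5 mM DTT.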
Lassa entry inh: Lassa virus entry inhibition; 300,000 compounds, 1.2% hits; Potency, µM (series often up to 37.9 µM), for the others: at the top dose activity change, negative = inhibition, hits mostly inhibitors; Lassa virus pseudotype entry inhibition, cell reporter; control for the full effect not named in the record; active means well fitted inhibition curve with a large enough effect; inconclusive means small, poorly fitted or top-dose-only effect, or effect the other way; inactive means flat fitted curve, though single readings scatter; tested in HEK293 cells; also: % is scaled to controls: 0 for no effect and ±100 for the full control effect; nearly all actives have a fitted effect of over 50% in size; luciferase read-out
NS1 inh: influenza NS1 inhibition. S. cerevisiae slowed by influenza A NS1, growth recovery by OD600. Potency, µM (highest dose often 46.1 µM), for the others: at the top dose activity, positive = more growth. 270,000 compounds, 0.4% hits. AID 2326; active means well fitted rising curve with a large enough effect; inconclusive means small, poorly fitted or top-dose-only effect; inactive means no such curve, though single readings can be large or run the other way; also: nearly all actives have a fitted effect of over 50% in size
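Compounds were scored for reversing the slow growth caused by influenza A NS1 in S. cerevisiae, measured by optical density at 600 nm. Assay medium contained 2% galactose at pH 6.0; NS1-free yeast of the same strain were the positive control.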
SARS PLpro yeast: inhibitors of SARS-CoV papain-like protease in yeast. S. cerevisiae expressing SARS-CoV PLpro, growth rescue; control for the full effect not named in the record. Potency, µM (series often up to 32.9 µM), for the others: at the highest dose activity, positive = growth rescue. 330,000 compounds, 0.19% hits. AID 485353; active means well fitted rising curve with a large enough effect; inconclusive means small, poorly fitted or top-dose-only effect; inactive means no such curve, though single readings can be large or run the other way; also: 0% is about no effect; nearly all actives have a fitted effect of over 55% in size; growth read by luminescence after 48 h
Marburg entry inh: Marburg virus entry inhibition | Marburg virus pseudotyped entry inhibition, cell reporter; control for the full effect not named in the record; about a third of the inactives were read at about 46 µM | Potency, µM (highest dose often 37.8 µM), without a hit: at the top dose activity change, negative = inhibition, actives largely listed as inhibitors | 300,000 compounds, 1.8% hits | AID 540276; active = well fitted inhibition curve with a large enough effect; inconclusive = small, poorly fitted or top-dose-only effect, or effect the other way; inactive = flat fitted curve, though single readings scatter; tested in HEK293 cells; about a fifth of its hits are not listed in these tables; also: % is scaled to controls: 0 for no effect and ±100 for the full control effect; luciferase read-out
2A StopGo: FMDV 2A StopGo reporter, luciferase signal; 410,000 compounds, 1.2% hits; Potency, µM (doses to about 57.9 µM), without a hit: at the top dose signal change, negative = less light; human cells with a luciferase reporter of 2A StopGo recoding; control for the full effect not named in the record; AID 1159524; active = well fitted falling curve with a large enough effect; inconclusive = small, poorly fitted or top-dose-only effect; inactive = no such curve, though single readings can be large or run the other way; tested in HEK293T cells; also: % is scaled to controls: 0 for no effect and ±100 for the full control effect; nearly all actives have a fitted effect of over 45% in size; luciferase light after 4 h
Active calls of the source: *; ? = inconclusive; · = not tested or not shown; & = joins results of further samples; [ ] = remark or other dose. Unless noted, calls follow the shape of the dose curve; as a rule, active = well fitted curve in the direction sought with a large enough effect; inconclusive = small, poorly fitted or top-dose-only effect, or another doubt; inactive = no such curve, though single readings can be large; an effect the other way counts as inactive or inconclusive. Potency is read from the fitted curve at half-maximal effect.

SMILES	Cruzain inh noDet	RE007 growth inh	Cruzain inh Det	Lassa entry inh	NS1 inh	SARS PLpro yeast	Marburg entry inh	2A StopGo
CC(C)(C)NC(=O)C(c1c[nH]c2ccccc12)N(C(=O)Cn1nnc(-c2ccc(Cl)cc2)n1)c1ccccc1F (stereo not given)	?	0%	-1.8%	?	?	11%	?	-12%
O=[N+]([O-])c1ccc(OS(=O)(=O)Cc2ccccc2)cc1	·	14%	·	4%	·	-4%	?	-10%
CCOC(=O)C(C)Sc1ccc2nnc(-c3ccc(F)cc3)n2n1 (stereo not given)	9%	8%	-0.4%	-2%	-78%	6%	-1%&-1%	-9%
CCc1nnc(NC(=O)c2ccc(NS(=O)(=O)c3ccccc3)cc2)s1	11%	-13%	-1.4%	-12%	-8%	4%	-7%	66%[activator]
COc1ccc(C(CNC(=O)Nc2ccccc2)N2CCN(C)CC2)cc1 (stereo not given)	·	-2%	·	·	-8%	?	·	19%
COc1ccc(NS(=O)(=O)c2cccc(C(=O)OCC(=O)N3CCN(c4ccc(OC)cc4)CC3)c2)cc1	·	-20%	·	?	·	1%	?	-22%
CCC1CCCCN1CCNS(=O)(=O)c1ccc2c(c1)oc(=O)n2C (stereo not given)	-5%	-6%	-1.8%	·	3%	3%	·	-19%
COc1ccc(NC(=O)Cc2nnc(SCC(=O)Nc3nccs3)n2C)cc1	·	-10%	·	3%	1%	-6%	0%[46.1 µM]	8%
Cc1ccccc1CN1CCN(S(=O)(=O)c2cccs2)CC1	·	3%	·	?	1%	0%	13%[46.1 µM]	-18%
CCCNc1nc(-c2ccccc2)c(C(=O)OCC)cc1C#N	-4%	?	-5.9%	?	-21%	-8%	?	?
O=C(Nc1ccc(Br)cn1)c1ccc([N+](=O)[O-])o1	·	18µM*	·	-21%	·	-21%	?	8%
CC(=O)N1CCN(C(=O)C2(NC(=O)Nc3ccccc3Cl)CCCCC2)CC1	·	24%	·	-5%[46.1 µM]	-10%	-5%	-6%[46.1 µM]	-1%
COc1cc(C(=O)N2CCN(C(=O)Cc3ccccc3)CC2)cc(OC)c1OC	0%	-8%	4.5%	-4%	3%	0%	0%	-11%
CN(CC(=O)Nc1ccccc1Br)C(=O)c1n[nH]c2ccccc12	·	11%	·	-29%	·	-7%	-1%	?
COc1cc(OC)cc(C(=O)NCCc2cnc[nH]2)c1	·	-1%	·	·	2%	-1%	·	11%
Fc1cccc(CSc2ccc3nnc(-c4ccccn4)n3n2)c1	·	12%	·	?	-6%	0%	20%[46.1 µM]	-11%
N=c1c2c(n(Cc3ccc(Cl)c(Cl)c3)c3c1CCC3)CCCC2	-8%	-13%	-16%	?	-80%	-11%	?	?
COc1cc(/C=C/C(=O)NC(C)(C)C)ccc1OCc1ccccc1	7%	-6%	-7.4%	?	-21%	-2%	-15%	-16%
Cc1cccc(NC(=S)N2CCN(c3cc(C)ccc3C)CC2)c1	7%	-11%	-4.8%	?	10%	-11%	?	-18%
Cc1ccc(N=Cc2ccc(N(C)C)cc2)cc1	-11%	9%	-5.2%	-3%	-81%	4%	-3%	-14%
Cc1cc2c(NC(=O)CCCC(=O)O)cccc2nn1	·	2%	·	5%	3%	0%	0%	-1%
CCC(=O)Nc1cccc(NC(=O)CSc2nnc(-c3ccc(NS(C)(=O)=O)cc3)n2CC)c1	1%	10%	1.5%	-3%	-3%	2%	1%	0%
CCOc1ccccc1C1c2[nH]c3ccccc3c2C[C@H]2C(=O)N(C3CC3)CC(=O)N12 (stereo not given in full)	·	-9%	·	·	8%	2%	·	-21%
COc1cccc(CNC(=O)CN(C)S(=O)(=O)c2ccc3c(c2)n(C)c(=O)c(=O)n3C)c1	·	4%	·	·	0%	0%	·	-11%
Cc1ccc(/C=C2/NC(=O)N(Cc3ccccc3)C2=O)o1	-16%	45µM*	-4.3%	-3%	-53%	-66%	24%	7%

Part of the list above, reduced to RE007 growth inh and Lassa entry inh:
SMILES	RE007 growth inh	Lassa entry inh
N=c1c2c(n(Cc3ccc(Cl)c(Cl)c3)c3c1CCC3)CCCC2	-13%	?
COc1cc(/C=C/C(=O)NC(C)(C)C)ccc1OCc1ccccc1	-6%	?
Cc1cccc(NC(=S)N2CCN(c3cc(C)ccc3C)CC2)c1	-11%	?
Cc1ccc(N=Cc2ccc(N(C)C)cc2)cc1	9%	-3%
Cc1cc2c(NC(=O)CCCC(=O)O)cccc2nn1	2%	5%
CCC(=O)Nc1cccc(NC(=O)CSc2nnc(-c3ccc(NS(C)(=O)=O)cc3)n2CC)c1	10%	-3%
CCOc1ccccc1C1c2[nH]c3ccccc3c2C[C@H]2C(=O)N(C3CC3)CC(=O)N12 (stereo not given in full)	-9%	·

In a second layout: two of the compounds above.
molecule | Cruzain inh noDet | RE007 growth inh | Cruzain inh Det | Lassa entry inh | NS1 inh | SARS PLpro yeast | Marburg entry inh | 2A StopGo
CCC1CCCCN1CCNS(=O)(=O)c1ccc2c(c1)oc(=O)n2C (stereo not given) | -5% | -6% | -1.8% | · | 3% | 3% | · | -19%
Cc1ccc(N=Cc2ccc(N(C)C)cc2)cc1 | -11% | 9% | -5.2% | -3% | -81% | 4% | -3% | -14%

(listing goes on)
SMILES	Cruzain inh noDet	RE007 growth inh	Cruzain inh Det	Lassa entry inh	NS1 inh	SARS PLpro yeast	Marburg entry inh	2A StopGo
Cc1ccc(NC(=O)CCNS(=O)(=O)c2ccc3[nH]c(=O)oc3c2)c(C)c1	·	4%	·	·	-1%	-4%	·	0%
Cc1ccc(-c2noc(C3CCCN(C(=O)c4cccc([N+](=O)[O-])c4)C3)n2)o1 (stereo not given)	·	-5%	·	-29%[46.1 µM]	-5%	2%	12%[46.1 µM]	23%
CCCCC(CC)CNC(=O)c1[nH]c(C)c(C(C)=O)c1C (stereo not given)	10%	-4%	-12%	·	-79%	-6%	-2%	29%
CC(Sc1nc2c([nH]c3ccccc32)c(=O)n1-c1ccccc1)c1ccccc1 (stereo not given)	7.9µM*	·	-2.5%	?	·	·	·	-25%
O=S1(=O)CCN2C(=N1)Sc1c2ccc2c1CCCC2	-7%	11%	-9.2%	30%	-64%	-12%	10%	·
CSc1nc2ccc(S(=O)(=O)Nc3c(C)n(C)n(-c4ccccc4)c3=O)cc2s1	-10%	1%	-5.2%	?	-10%	1%	4%	-26%
Cc1ccn2c(c1)nc(=O)c1cc(S(=O)(=O)N3CCOCC3)ccc12	·	2%	·	·	-10%	-4%	·	-18%
COc1ccc(-n2c(=O)c3ccc(C(=O)NCc4ccc(C)cc4)cc3n(Cc3cccc(Cl)c3)c2=O)cc1	-16%	·	-2.1%	13%[46.1 µM]	·	·	-9%[46.1 µM]	18%
COc1cc(-c2nnc(SCCOc3ccccc3)o2)cc(OC)c1OC	12%	·	-2.2%	8%[46.1 µM]	·	·	-2%[46.1 µM]	-24%
N#Cc1ccc(N2CCCNCC2)nc1	·	1%	·	·	6%	-2%	·	-3%
Cc1onc(-c2c(Cl)cccc2Cl)c1C(=O)Nc1nc(C(C)(C)C)cs1	·	-2%	·	?	9%	-2%	?	-24%
Cc1cc(C)n2c(SCCC(C)C)nnc2n1	-6%	4%	3.2%	15%	?	-7%	-11%	45%[activator]
Cc1cc(C)c(-c2cc(NC(=O)COC(=O)c3ccc(NC(=O)CC#N)cc3)n(-c3ccccc3)n2)cc1C	·	-10%	·	-2%	·	-5%	-37%	-25%
CCOC(=O)C1=C(C)N(c2ccc(C)cc2)C(=O)/C1=C\c1ccc(O)c(OC)c1	·	-14%	·	·	20%	0%	·	?
COc1ccc(OC)c(NC(=O)CCNS(=O)(=O)c2ccc3c(c2)oc(=O)n3C)c1	-11%&-12%	-7%	-0.6%&-1.6%	-4%[46.1 µM]	10%	12%	?	-8%&-19%
O=C(COc1ccccc1)N=C1SC2CS(=O)(=O)CC2N1c1ccc(F)cc1F (stereo not given)	·	12%	·	·	-9%	-25%	·	-3%
CC(=O)Oc1c(Br)cc(N(C(C)=O)S(=O)(=O)c2ccccc2)c2ccccc12	·	2%	·	·	-9%	-8%	·	-2%
O=C(Nc1c(C(=O)Nc2cccc(F)c2)oc2ccccc12)c1ccc2c(c1)OCO2	?	9%	-11%	16%	-9%	2%	?	63%[activator]
CCOc1ccc(NC(=S)Nc2ccc(OC(F)(F)F)cc2)cc1	-4%	0%	-3.2%	-12%	-7%	16%	11%	0%
CC1(C)OC(=O)C(=CNCC(O)c2ccccc2)C(=O)O1 (stereo not given)	-2%	-19%	6.2%	14%	16µM*	11%	16%	·
CCC(=O)N1CCc2cc(Br)cc(S(=O)(=O)N(C)c3ccc(OC)cc3)c21	·	-2%	·	-14%	-31%	-15%	?	-24%
O=C(CN1CCN(S(=O)(=O)N2CCCCC2)CC1)Nc1ccc(Br)cc1	·	0%	·	4%	-37%	9%	23%	-18%
CCCCn1c(N)c(N(CCOC)C(=O)c2ccc(-c3ccc(Cl)cc3)o2)c(=O)[nH]c1=O	·	-2%	·	-9%[46.1 µM]	·	1%	?	10%
NC(N)=N/N=C/c1ccc(OCc2ccc(Cl)cc2Cl)cc1	-12%	-5%	-18%	?	-62%	-9%	10µM*	·
CCc1ccc(N(C(=O)c2ccco2)C(C(=O)NC2CCCC2)c2cccnc2)cc1 (stereo not given)	·	-10%	·	1µM*	-20%	1%	?	19%
O=C(CCc1ccccc1O)NC1CCCc2ccccc21 (stereo not given)	·	9%	·	-20%	-4%	-1%	-1%[46.1 µM]	0%
Cc1ccccc1C(=O)c1cccn1CC(=O)NCCCN1CCc2ccccc2C1	·	-6%	·	0%	·	2%	?	-26%
CC(=O)Nc1sc2c(c1C(c1cccc(Cl)c1)N1CCN(CCO)CC1)CCCC2 (stereo not given)	·	20%	·	·	-5%	0%	·	12%
